Six1-Eya2 inh – inhibitors of human Six1/Eya2 interaction; Q15475+O00167; AlphaScreen GST-Six1/His-Eya2 binding, biochemical; hits give low values; control for the full effect not named in the record; activity change, % (concentration not given with the values); 360,000 tested, 0.56% active; in the data active = activity change below about -65%; inconclusive = about -30% to -65%; inactive = above about -30%; further: on the % scale 0 is the no-effect control and ±100 the full control effect
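Compounds are tested against tagged Six1 and Eya2 proteins bridged by glutathione donor and nickel acceptor beads; after a one-hour incubation at 37 °C without light, AlphaScreen emission is recorded.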
CtBP-E1A blk – blocks the CtBP interaction with E1A | AlphaScreen GST-E1A/His-CtBP binding, 1536-well; hits give low values; control for the full effect not named in the record | 340,000 tested, 0.49% active | activity change, % (no concentration beside the values); in the data active means activity change below about -65%; inconclusive means about -30% to -65%; inactive means above about -30%; further: on the % scale 0 is the no-effect control and ±100 the full control effect; compound concentration not given in the record
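Homogeneous bead-based format: GST-tagged E1A captured on glutathione donor beads, His-tagged CtBP on nickel acceptor beads; compounds precede bead addition by 2 h at 37 °C.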
PINK1 modulator – changes PINK1 expression; PINK1 immunofluorescence, high-content cytometry, 24 h; Potency, µM (top dose mostly 76.6 µM), for the others: top-dose activation (PINK1 increase), hits mostly activators; 410,000 tested, 0.2% active; AID 624263; active = well fitted activation curve with a large enough effect; inconclusive = small, poorly fitted or top-dose-only effect; inactive = flat fitted curve, though single readings scatter; cell line not stated here;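 further: potency means the concentration at half of the fitted maximal effect; % of control where 0% means no effect; nearly all actives have a fitted effect of over 65% in size; a mitochondrial uncoupler was the plate control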
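Measures PINK1 amount and localization on or inside mitochondria by immunofluorescence. Stable cells get compounds at 5 concentrations for 24 hours before fixation and staining; CCCP controls included.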
D2 agonist – human D2 receptor agonism in beta-arrestin assay; P14416; AID 624465; 360,000 tested, 0.084% active; DiscoveRx PathHunter D2 beta-arrestin, luminescence, 90 min; 100% = 57 uM dopamine signal; activation, % (no concentration beside the values); in the data active = activation above about 40%; inconclusive = about 15% to 40%; inactive = below about 15%; further: compound concentration not given in the record; the text of the record calls up to 30% inactive
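DiscoveRx PathHunter D2 beta-arrestin cells (2,100/well) attached overnight, then compound-stimulated 90 min at 37 C in HBSS/10 mM HEPES/0.1% Tween-20 buffer; beta-galactosidase complementation read by luminescence after 1 h at ambient temperature. Dopamine 57 uM final (EC100) as control.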
TRPV1 PAM – human TRPV1 potentiation; Q8NER1; TRPV1-expressing cells, Fluo-8 calcium influx, capsaicin EC20 potentiation; host cell line not named in the record; control for the full effect not named in the record; potentiation, % at 8.33 µM; 320,000 tested, 0.02% active; AID 540277; active means potentiation above 80%; inconclusive means 30% to 80%; inactive means below 30%; further: 0% is about no effect
Target sequence (Q8NER1 whole entry, looked up): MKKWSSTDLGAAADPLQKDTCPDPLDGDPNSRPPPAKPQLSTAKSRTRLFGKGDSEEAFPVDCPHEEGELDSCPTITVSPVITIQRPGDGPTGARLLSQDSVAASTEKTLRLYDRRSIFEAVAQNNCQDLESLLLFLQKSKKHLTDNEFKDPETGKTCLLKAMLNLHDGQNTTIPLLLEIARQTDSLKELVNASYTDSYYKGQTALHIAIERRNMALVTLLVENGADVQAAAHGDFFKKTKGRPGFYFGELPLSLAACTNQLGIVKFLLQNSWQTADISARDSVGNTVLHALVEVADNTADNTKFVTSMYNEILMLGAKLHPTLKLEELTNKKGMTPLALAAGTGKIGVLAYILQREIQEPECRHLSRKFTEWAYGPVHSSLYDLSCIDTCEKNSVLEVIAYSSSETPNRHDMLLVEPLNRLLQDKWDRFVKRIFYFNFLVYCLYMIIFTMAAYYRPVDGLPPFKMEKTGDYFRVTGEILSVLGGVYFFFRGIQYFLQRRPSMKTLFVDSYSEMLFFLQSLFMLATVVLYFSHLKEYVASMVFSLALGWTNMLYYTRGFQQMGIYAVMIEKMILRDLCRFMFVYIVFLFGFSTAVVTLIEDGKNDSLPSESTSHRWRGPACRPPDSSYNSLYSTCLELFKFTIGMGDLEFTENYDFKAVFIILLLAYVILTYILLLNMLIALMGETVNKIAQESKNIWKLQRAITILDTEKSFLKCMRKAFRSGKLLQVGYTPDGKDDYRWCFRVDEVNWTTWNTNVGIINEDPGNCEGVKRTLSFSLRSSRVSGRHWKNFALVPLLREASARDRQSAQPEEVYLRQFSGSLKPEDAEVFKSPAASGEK
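Fluo-8 calcium influx in TRPV1-expressing cells, kinetic read (ex 480/em 520 nm). Compound added and read 3 min for agonist activity, followed by capsaicin at EC20 final and 2 min further read for enhancement.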
Sfp inh – inhibitors of Bacillus subtilis Sfp phosphopantetheinyl transferase; AID 1490; Biochemical Sfp PPTase activity, qHTS; Potency, µM, for inactives: max response, negative = inhibition, usual class: inhibitors; 310,000 tested, 3.5% active; Q9F4F7; active means well fitted inhibition curve with a large enough effect; inconclusive means small, poorly fitted or top-dose-only effect, or another doubt; inactive means no such curve, though single readings can be large or run the other way;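 further: the enzyme is Sfp with the accession as filed and its product quenches rhodamine fluorescence; potency means the concentration at half of the fitted maximal effect; 0% = enzyme reaction without inhibitor and -100% = no enzyme wells; top concentration of the series not given in the record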
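Step 1, compound plus 15 nM Sfp-PPTase, 15 min, room temperature. Step 2, add rhodamine-CoA (5 uM) and BHQ-2-YbbR (12.5 uM). Step 3, read 525/598 nm fluorescence at 0 and 30 min.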
D2 PAM – positive allosteric modulators of human D2 dopamine receptor. AID 624464. potentiation, % (concentration not given with the values). DiscoveRx D2 beta-arrestin cells, luminescence, 90 min; 100% = 57 uM dopamine signal. 360,000 tested, 0.23% active. P14416; active = potentiation of 50% or more; inconclusive = 30% to 50%; inactive = 30% or less;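 further: compound concentration not given in the record; tested on top of an EC20 dose of dopamine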
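PathHunter beta-arrestin assay in DiscoveRx D2 cells. Compounds were added with an EC20 of dopamine (50 nM final) for 90 min at 37 deg C. Luminescence was read 1 h after detection reagent, with 57 uM dopamine as the EC100 control.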
The depositor's hits bear a star; ? = inconclusive; · = not tested or not shown; & = joins results of further samples; [ ] = another dose, or the depositor's remark.

Sample of the layout:
# | molecule | D2 PAM | PINK1 modulator | D2 agonist | Six1-Eya2 inh | TRPV1 PAM | Sfp inh | CtBP-E1A blk
1 | CC(C)(C)NC(=O)CN(C(=O)C1CSC(=O)C1)c1ccc2c(c1)OCCO2 (stereo unspecified) | 1 | 0.7%[38.3 µM] | -6.2 | 2 | 5 | 2% | 7
2 | CCN(CC)CCSc1nc2ccccc2n1Cc1ccccc1 | -29 | 1.7% | -4.8 | -8 | 16 | -11% | 0
3 | O=C(O)C1CSC(c2ccc3c(c2)OCO3)N1 (stereo unspecified) | 3 | 3.4% | 1.4 | -17 | 19 | 25µM* | -3
4 | CC(SC(C)C(=O)NN=Cc1cccc(F)c1)C(=O)NN=Cc1cccc(F)c1 (stereo unspecified) | 0 | 12% | 9.6 | 3 | · | · | 7
5 | Cc1ccc(-c2cn(-c3ccccc3)c(SCC(N)=O)n2)cc1C | 6 | 1.0% | -2.6 | -21 | 24 | -18% | -2

This part in full, previewed entries included:
# | molecule | D2 PAM | PINK1 modulator | D2 agonist | Six1-Eya2 inh | TRPV1 PAM | Sfp inh | CtBP-E1A blk
1 | CC(C)(C)NC(=O)CN(C(=O)C1CSC(=O)C1)c1ccc2c(c1)OCCO2 (stereo unspecified) | 1 | 0.7%[38.3 µM] | -6.2 | 2 | 5 | 2% | 7
2 | CCN(CC)CCSc1nc2ccccc2n1Cc1ccccc1 | -29 | 1.7% | -4.8 | -8 | 16 | -11% | 0
3 | O=C(O)C1CSC(c2ccc3c(c2)OCO3)N1 (stereo unspecified) | 3 | 3.4% | 1.4 | -17 | 19 | 25µM* | -3
4 | CC(SC(C)C(=O)NN=Cc1cccc(F)c1)C(=O)NN=Cc1cccc(F)c1 (stereo unspecified) | 0 | 12% | 9.6 | 3 | · | · | 7
5 | Cc1ccc(-c2cn(-c3ccccc3)c(SCC(N)=O)n2)cc1C | 6 | 1.0% | -2.6 | -21 | 24 | -18% | -2
6 | Cn1c(SCC(=O)Nc2cc(C(C)(C)C)nn2-c2ccccc2)nc2ccccc21 | -30 | 5.1% | -3.2 | 2 | -6 | 2% | 6
7 | CC(Oc1cc2oc(=O)c3c(c2cc1Cl)CCC3)C(=O)NCc1ccccn1 (stereo unspecified) | -6 | 1.3% | 1.1 | 1 | -1 | 3% | 2
8 | S=c1[nH]nc(-c2ccc(Cl)cc2)n1Cc1ccccc1 | -4 | -0.8%[38.3 µM] | 3.1 | -2 | 12 | -3% | 0
9 | O=C(NCC1(c2ccccc2)CCCC1)C1(c2ccccc2)CCCC1 | -26 | 9.4% | -3.0 | 18 | -15 | -6% | 21
10 | C=CC[C@H]1Cc2c(cccc2[N+](=O)[O-])[C@H](CC=C)N1 | 13 | 0.8% | ? | -27 | 5 | 4% | ?
11 | Cn1[nH]c(=O)c2ccccc2c1=O | -8 | · | 2.7 | 1 | -2 | -7% | 6
12 | O=C(Cc1cccs1)N/N=C\c1ccc([N+](=O)[O-])s1 | 27 | ? | 2.5 | -3 | -12 | ? | ·
13 | CCC(C)Cn1c(O)cc2nn(-c3nc4ccccc4s3)c(=O)c-2c1C (stereo unspecified) | -8 | 4.1% | -3.1 | -14 | -1 | -4% | -7
14 | COc1ccc(OCC(=O)Nc2ccccc2C(=O)N2CCCC2)cc1 | -5 | 2.5% | -3.0 | -1 | 3 | 15% | 6
15 | CC1CCCN(C(=O)c2ccc(NC(=O)CC3SC(N4CCCC4)=NC3=O)cc2)C1 (stereo unspecified) | -15 | -0.5% | -0.4 | 8 | 12 | · | 3
16 | C=CCOC(=O)Nc1snnc1C | -5 | -1.8% | -2.3 | 14 | 16 | 17% | 1
17 | C[C@H](C(=O)NCc1ccccc1)C(=O)c1ccccc1 | -3 | -0.3% | 1.3 | 0 | -5 | 6% | -9
18 | O=C1CC(c2ccccc2)N1c1ccccc1 (stereo unspecified) | 2 | -1.2% | -0.6 | 14 | · | 8% | 6
19 | CCCCNc1c(-c2ccc(SC3CCCCC3)cc2)nc2cnccn12 | -3 | -0.2% | -1.6 | 43 | · | · | -4
20 | CCOc1ccc(C(=O)NCC(c2cccs2)N2CCOCC2)cc1 (stereo unspecified) | -3 | 1.0% | 6.4 | 8 | · | · | 3
21 | CC(=O)N1CCN(S(=O)(=O)c2ccc3c(c2)OCCO3)CC1 | -3 | -0.9% | -2.5 | 3 | -7 | · | 4
22 | Cn1c(=O)c(=O)n(C)c2cc(S(=O)(=O)NCCOc3ccccc3Cl)ccc21 | -2 | 6.1% | 5.7 | 10 | -2 | 28% | 2
23 | CCOc1ccc(N(CC(=O)NCc2cccnc2)S(=O)(=O)c2ccc(F)cc2)cc1 | -15 | -0.9% | -2.3 | 3 | -1 | 17% | 3
24 | COc1ccc(C(=O)CN2C(=O)NC(C)(c3ccccc3)C2=O)cc1OC (stereo unspecified) | -8 | -1.4% | -3.1 | -2 | 3 | 8% | 3
25 | CCn1cc(CNC(=O)c2c(-c3c(Cl)cccc3Cl)noc2C)c(C)n1 | -3 | -1.2% | -2.4 | 17 | -4 | 3% | -1
26 | O=S1(=O)CCN2C=C(Cl)C=C(Cl)C2=N1 | -5 | 1.1% | 0.5 | 3 | 4 | 15% | 1
27 | CCCCCn1c(CN2CC(C)OC(C)C2)nc2c1c(=O)n(C)c(=O)n2C (stereo unspecified) | -3 | 2.1% | -3.4 | 5 | 4 | 25% | -2
28 | Cc1c(C(=O)OCC2CCCO2)[nH]c2c1C(=O)CC(c1ccc(N(C)C)cc1)C2 (stereo unspecified) | 6 | 1.8% | 8.9 | -27 | -10 | -9% | -26
29 | Nn1c(SCC(=O)Nc2ccc(F)cc2F)nnc1-c1cccnc1 | 2 | -1.2%[38.3 µM] | -0.1 | 2 | 20 | 14% | 2
30 | O=C(CSc1ccc(-c2cccnc2)nn1)c1ccc([N+](=O)[O-])cc1 | 13 | -1.0% | 1.3 | -14 | -11 | -30% | -22
31 | Clc1ccc(-c2csc(Nc3cccnc3)n2)cc1 | -10 | 2.2% | -4.2 | -5 | -3 | -5% | 2
32 | CCCCn1nc2cc(C(=O)N[C@H](C)C3CCCCC3)ccc2c1OCC | -2 | 3.5% | -1.7 | 3 | -7 | -2% | -6
33 | O=C(CCc1ccccc1)Nc1ncc([N+](=O)[O-])s1 | -32 | 20µM* | -9.0 | -10 | -10 | 5% | 4
34 | O=C(COC(=O)c1cc2ccccc2cc1O)Nc1cccnc1Cl | 5 | 14% | -1.7 | 20 | 0 | 10% | 18
35 | COC(=O)c1ccc(C)c(NC(=O)C2COc3ccccc3O2)c1 (stereo unspecified) | -11 | -0.9% | -3.3 | 1 | 10 | 15% | 6
36 | O=C1CSC(c2ccc([N+](=O)[O-])cc2)N1CCN1CCCCC1 (stereo unspecified) | -15 | -0.2% | -1.1 | 3 | 19 | -3% | 13
37 | CCOC(=O)c1c(C)nc(C(Cl)(Cl)Cl)nc1N | -9 | -0.6% | -1.0 | 1 | 24 | 8% | 11
38 | CCC(=O)N1CCc2cc(Br)cc(S(=O)(=O)NCC3CCCO3)c21 (stereo unspecified) | -5 | 1.6% | -1.6 | -4 | 12 | 5% | 2
39 | CCOc1ccc(-c2ccc(SCC(=O)NC3CCCCC3)nn2)cc1 | -3 | ? | -3.7 | 3 | 6 | 0% | -4
40 | Fc1cc(Cl)ccc1NC(=S)NCCN1CCOCC1 | -3 | -0.7% | 3.4 | 7 | 11 | -5% | 6
41 | O=C(CSc1nn(-c2ccccc2)c(=S)s1)NC(=O)NCc1ccco1 | -1 | 2.0%[38.3 µM] | 0.0 | -4 | -1 | -11% | -3
42 | CCN1CCc2c(sc(NC(=O)c3ccc(S(=O)(=O)N4CCCC4)cc3)c2C(=O)NC)C1 | -4 | 0.0% | -2.3 | 0 | -33 | 0% | -1
43 | CCOc1ccc(CCNC(=O)COC(=O)c2ccc(Br)o2)cc1OCC | -4 | 1.1% | -1.0 | -3 | -16 | · | 4
44 | COc1ccc(C(=O)Nc2ccccc2N2CCCCC2)cc1[N+](=O)[O-] | -2 | 1.8% | -1.5 | -10 | -14 | -8% | -24
45 | CCOC(=O)c1[nH]c2ccc(OC)cc2c1NC(C)=O | 4 | 2.2% | -2.3 | -5 | · | -13% | 3
46 | COc1cccc(CN2CCNC(=O)C2CC(=O)NCC2CCOCC2)c1 (stereo unspecified) | -21 | 0.1% | -0.2 | 5 | 18 | 1% | 1
47 | O=C(CCc1ccc(S(=O)(=O)NCCc2ccccc2)cc1)Nc1ccc2c(c1)OCCO2 | -15 | -0.9% | -2.0 | 12 | -1 | 2% | 23
48 | Fc1ccc(-c2oncc2-c2nnnn2-c2ccccc2)cc1F | 13 | -0.5% | -3.9 | 4 | -14 | 8% | 7
49 | Cc1ccc(-n2c(N)c(Br)c(=O)[nH]c2=O)cc1C | -1 | -1.3% | -1.4 | 11 | 4 | 14% | 7
50 | COc1ccc(S(=O)(=O)NCCc2nnc3ccc(SCC(=O)Nc4cc(C)on4)nn23)cc1 | -2 | 0.7% | -2.3 | 2 | -2 | 22% | 7
51 | COC(=O)C(C)NC(=O)C(C)NC(=O)OCc1ccccc1 (stereo unspecified) | 6 | 2.6% | -1.9 | 9 | 17 | 9% | 14
52 | COc1ccc(-c2cc(C(=O)Nc3c(C)nn(Cc4ccccc4)c3C)no2)cc1 | -5 | 5.6%[38.3 µM] | -0.7 | 2 | -6 | 1% | 5
53 | COc1cccc(NC(=O)Cn2nnc(C(=O)NCCc3ccccc3)c2N)c1 | -10 | 6.1%&4.7% | -1.7 | 2 | 14 | 12% | -4
54 | COc1ccc(Sc2ncnc3onc(C)c23)cc1 | -8 | 1.7% | -2.0 | -5 | 5 | 17% | -17
55 | O=C(NC1CCCC1)C(c1ccc(Cl)cc1)N(Cc1ccc(F)cc1)C(=O)CCl (stereo unspecified) | -24 | -1.9% | -9.6 | -13 | 5 | -3% | -3
56 | CC(=O)NC1=NN(C(C)=O)C2(S1)C(=O)N(CC(C)C)c1ccc(C)cc12 (stereo unspecified) | 0 | 1.5% | -4.4 | 3 | 0 | 12% | ·
57 | O=C(NC(=S)Nc1ccc(Cc2ccncc2)cc1)c1ccccc1F | 0 | 1.0% | -2.6 | 4 | -5 | -22% | -11
58 | CCC(NC(=O)c1cc(COc2cncc(Cl)c2)on1)c1ccncc1 (stereo unspecified) | -10 | 1.2% | -4.2 | -15 | 6 | 6% | ·
59 | CCn1c(C)nc2cc(C(=O)NNC(=S)Nc3ccc(OC)cc3)ccc21 | -14 | -0.5% | -4.9 | -5 | 9 | 24% | -22
60 | Cc1occc1-c1nnc(SCC(=O)c2ccc(Cl)cc2)n1CC1CCCO1 (stereo unspecified) | 15 | -0.3% | -0.5 | 0 | -8 | -18% | -1
61 | O=C1OC(c2ccccc2)=N/C1=C\N1CCCCC1 | -2 | · | -0.3 | -16 | -12 | 3% | 5

Assay outcomes as filed in PubChem BioAssay.
